Assay outcomes from PubChem.
Tgondii IFNg: inhibitors of Toxoplasma gondii growth with IFN-gamma; Toxoplasma gondii growth in IFN-gamma-treated host cells; hits give low values; reference of the scale not given here; activity change, negative = inhibition, %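 (about 20 µM by stock and volumes)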; 3.8% of 69,000 active;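 active = below -70%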;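 note: host cells are HeLa cells infected with Toxoplasma gondii; parasite growth read as luciferase light; one replicate is shown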
* marks the source's active call; other numbers are inactive results; i = inactive; & = joins results of further samples. This is a subset (hit frequency here may not be typical).

SMILES | Tgondii IFNg
COc1cccc(CN2C[C@@H]3CCN(C(=O)C4CCC4)CC[C@H]3S2(=O)=O)c1 | -91*
Cc1noc(C)c1S(=O)(=O)N(C)C[C@H]1OCc2ccccc2-c2c(n(C)c3ccccc23)C(=O)N([C@H](C)CO)C[C@@H]1C | -33
CC1=C(C(=O)OCCN(Cc2ccccc2)c2ccccc2)C(c2cccc([N+](=O)[O-])c2)C(P2(=O)OCC(C)(C)CO2)=C(C)N1 (stereo unspecified) | -13
COc1cccc(CNC(=O)C[C@@H]2CC[C@@H]3[C@H](COc4ccc(NC(=O)c5cccs5)cc4C(=O)N3C)O2)c1 | 10
CC(C)N1CC2CN(Cc3cnn(C)c3)CCC2(c2ccccc2)C1 (stereo unspecified) | -18
COCC(=O)N1CC(=O)N2[C@H](CO)[C@@H](c3ccc(-c4ccccc4F)cc3)[C@H]2C1 | -52
C[C@@H]1CN([C@H](C)CO)C(=O)c2ccccc2-c2ccccc2CO[C@H]1CN(C)C(=O)Nc1cccc(Cl)c1Cl | -11
C[C@H](CO)N1C[C@H](C)[C@H](CN(C)C(=O)[C@H](Cc2ccccc2)N(C)C)OCc2ccccc2-c2ccccc2C1=O | 83
O=C(Nc1ccc(F)cc1F)N1CCCCC1CN1CCOCC1 (stereo unspecified) | -50
Cc1cccc2c(SCC(=O)NC(C)(C)C)nc(-c3ccc(F)cc3)nc12 | 4
CC(C)NC(=O)N1CC(=O)N2[C@@H](CO)[C@H](c3ccc(/C=C/c4ccccc4)cc3)[C@@H]2C1 | -56
Cc1cc(C)n(CCCC(=O)Nc2cnc3n2CCCC3)n1 | -1
Cc1ccc2c(c1)C1CN(C)CCC1N2S(=O)(=O)c1ccc(Oc2ccc([N+](=O)[O-])cc2)cc1 (stereo unspecified) | -89*
Cc1cc(C2CCCN(S(=O)(=O)N3CCOCC3)C2)ccn1 (stereo unspecified) | -1
CCn1c(CC2CCN(C(=O)c3[nH]c4ccccc4c3C)CC2)n[nH]c1=O | -47
Cc1cccc(-c2nc(Cn3cnc4nc5c(cc4c3=O)CC(C)CC5)c(C)o2)c1 (stereo unspecified) | 82
CCOC(=O)c1ccc(-n2sccc2=O)cc1 | -21
CC(C)(CO)NC(=O)c1cc(-c2cn(-c3ccccn3)cn2)n2ccccc12 | 17
Fc1ccc(CN2CCC3(CC2)CC(OCc2ccncc2)CO3)cc1 (stereo unspecified) | -5
COc1ccc(-c2[nH]ncc2CN(Cc2ccc(C)o2)CC2CCCO2)cc1 (stereo unspecified) | -19
CC(C)NC(=O)c1cc2c(nc1NCC1CC1)CCN(c1ncc(F)cn1)CC2 | -1
C[C@H](NC(=O)C[C@H]1CC[C@@H]2[C@H](COC[C@H](O)CN2Cc2ccc(C(F)(F)F)cc2)O1)c1ccccc1 | -40
Cc1ccc2c(c1)C(=O)CC1(CCN(C(=O)C3CCCC3)CC1)O2 | -4
CNC[C@H]1OCCCC[C@@H](C)Oc2ccc(N)cc2C(=O)N([C@@H](C)CO)C[C@H]1C | 93
COc1ccc(-c2ncc(Cl)cn2)c2ccc(C)nc12 | -38

Next section; it opens with the 2 that closed the last part.
SMILES | Tgondii IFNg
CNC[C@H]1OCCCC[C@@H](C)Oc2ccc(N)cc2C(=O)N([C@@H](C)CO)C[C@H]1C | 93
COc1ccc(-c2ncc(Cl)cn2)c2ccc(C)nc12 | -38
Cc1ccc(NS(=O)(=O)C2CCS(=O)(=O)C2)cc1 (stereo unspecified) | 11
CCCNC(=O)Nc1ccc2c(c1)OC[C@@H](C)N(C(=O)C1CCOCC1)C[C@H](C)[C@H](OC)CN(C)C2=O | 41
COc1ccc(N(Cc2nc(-c3cccc(Cl)c3)oc2C)S(=O)(=O)c2ccc(OC)cc2)cc1 | 12
Fc1ccccc1CN(Cc1cccnc1)Cc1ccoc1 | -4
O=C(NCCc1csc(-c2ccc(F)cc2)n1)C(=O)Nc1ccccc1F | -60
CC(C)Oc1ccc(-c2noc(-c3c(O)c4cc(F)ccc4n(C)c3=O)n2)cc1 | 76
CC(=O)CSC(=S)N1CCSCC1 | -31
NC(=O)C(c1ccccc1)C1CCCC1 (stereo unspecified) | 10
C[C@H](CO)N1C[C@H](C)[C@@H](CN(C)C(=O)Nc2cccc(Oc3ccccn3)c2)OCc2cnnn2CCCC1=O | 268
COc1cc(-c2nc(Cn3ccn4nc(-c5ccc(F)cc5)cc4c3=O)c(C)o2)cc(OC)c1OC | -42
CC(C)S(=O)(=O)N1CCN2C(=O)c3ccccc3[C@@H]2C1 | 12
O=C(CCn1c(=O)oc2cc(Cl)ccc21)N(Cc1ccccn1)C1CCCCC1 | -12
O=C1CCC2(CCCO2)CCN1Cc1ccccc1-c1ccccc1 (stereo unspecified) | 1
Cc1ccc2[nH]c(=O)c(-c3nc(-c4ccc(Cl)c(F)c4)no3)c(O)c2c1 | 8
CN1CCC2(CC1)CN(Cc1ccc(C3CCCCO3)o1)CCCN2C (stereo unspecified) | 3
CC(C)c1ccc(NC(=O)CSc2ncnc(N)n2)cc1 | -2
CCN(Cc1ccc(OC)cc1)C(=O)c1cnc(N2CCOCC2)nc1 | -2
Nc1nc(=O)n([C@H]2C[C@@H](O)[C@@H](CO)O2)cc1Cl | 4
CCNC(=O)c1ccccc1-c1cc2ccccc2nc1OC | 2
Cc1oc(-c2ccc(C(=O)NCc3ccc(OC(C)C)cc3)cc2)nc1CN1CCc2ccccc21 | -88*
Cc1cc(Nc2ccccn2)cc(C2CCCN(C(=O)c3n[nH]c4c3CCCCCC4)C2)n1 (stereo unspecified) | -86*
O=S(N1CCOCC1)C12CC3CC(CC(C3)C1)C2 (stereo unspecified) | 24
Fc1ccc(-c2cn3c(n2)Cc2ccccc2C3)cc1 | i
CCCc1cc(C(=O)N2CCCC(c3[nH]c4c(C)cccc4c3-c3ccncc3)C2)no1 (stereo unspecified) | -116*
Cc1cccc(C(=O)N2CCC3(CC2)CC(CC(=O)NC(C)C)c2ccccc23)n1 (stereo unspecified) | -9

3 entries picked at random from the list so far, as already listed:
SMILES | Tgondii IFNg
Cc1oc(-c2ccc(C(=O)NCc3ccc(OC(C)C)cc3)cc2)nc1CN1CCc2ccccc21 | -88*
CC(C)N1CC2CN(Cc3cnn(C)c3)CCC2(c2ccccc2)C1 (stereo unspecified) | -18
Nc1nc(=O)n([C@H]2C[C@@H](O)[C@@H](CO)O2)cc1Cl | 4

4 entries already listed, arranged by heavy-atom count, descending:
SMILES | Tgondii IFNg
Cc1cc(Nc2ccccn2)cc(C2CCCN(C(=O)c3n[nH]c4c3CCCCCC4)C2)n1 (stereo unspecified) | -86*
Cc1cccc(C(=O)N2CCC3(CC2)CC(CC(=O)NC(C)C)c2ccccc23)n1 (stereo unspecified) | -9
O=C(CCn1c(=O)oc2cc(Cl)ccc21)N(Cc1ccccn1)C1CCCCC1 | -12
CC(=O)CSC(=S)N1CCSCC1 | -31

4 of the compounds above, as comma-separated lines:
structure,Tgondii IFNg
CCN(Cc1ccc(OC)cc1)C(=O)c1cnc(N2CCOCC2)nc1,-2
COc1cc(-c2nc(Cn3ccn4nc(-c5ccc(F)cc5)cc4c3=O)c(C)o2)cc(OC)c1OC,-42
C[C@H](CO)N1C[C@H](C)[C@@H](CN(C)C(=O)Nc2cccc(Oc3ccccn3)c2)OCc2cnnn2CCCC1=O,268
NC(=O)C(c1ccccc1)C1CCCC1 (stereo unspecified),10

Following part.
SMILES | Tgondii IFNg
CCN1c2cc(Cl)ccc2C(=O)NC12CCN(C(=O)Nc1ccc(OC)cc1C)CC2 | i
CCc1ccc(S(=O)(=O)N2CCC3(CC2)NCCN=C3NCc2ccc(F)c(Cl)c2)cc1 | -49
Cc1nccn1CCCNC(=O)c1cccc(N2CCCCC2)c1 | 2
COc1ccc(-c2nnc(SC(=O)N3c4ccccc4Sc4ccccc43)o2)cc1 | 93
O=S(=O)(c1ccccc1F)N1CCC2(CC1)Nc1ccccc1-n1cccc12 | -8
CN(Cc1ccccn1)C1C=CC2(CC1)CCN(C(N)=O)CC2 (stereo unspecified) | -57
CCN1CCC2(CN(S(C)(=O)=O)CC23CCN(Cc2cnn(C)c2)CC3)C1=O (stereo unspecified) | -7
N#Cc1c2c(c(Nc3ccc(Br)cc3)n3c1nc1ccccc13)CCC2 | 493
Oc1ccccc1-c1nnco1 | 8
O=C(C1Cn2ccnc2C2(CCN(Cc3ccoc3)CC2)O1)N1CCCC1 (stereo unspecified) | 1
Cc1cccc(NC(=O)N2CC(C(=O)N3CCOCC3)C3(CCOCC3)C2)c1 (stereo unspecified) | 0
COc1ccc(OC)c(NC(=O)N2CCC3(CC2)Nc2cc(F)ccc2-n2cccc23)c1 | i
Cc1cc(C)cc(OCCN(C)Cc2cc3n(n2)CCNC3)c1 | 1
CCOCC(=O)N1CCC2(CC1)CC(Nc1ncccn1)C2 | 3
COc1ccc(C(=O)N(Cc2ccccc2)C2(C(=O)NCc3ccccc3)CCN(C(C)=O)CC2)cc1 | -25
C=CCn1c(-c2ccccc2)csc1=Nc1ccc(C)cc1 | 148
Cc1ccc2c(c1C)-n1cccc1C1(CCN(S(=O)(=O)Cc3ccccc3)CC1)N2 | -28
COc1ccc(CC(=O)NCCc2csc(-c3cccc(F)c3)n2)cc1OC | 58
O=C(/C=C/c1ccc(Cl)cc1)NCCc1ccccc1 | -13
CNCCC=C1c2ccccc2C=Cc2ccccc21 | 16
COc1ccc2c(c1)NC1(CCN(C(=O)NCc3ccccc3)CC1)c1cccn1-2 | 272
CC(=O)N1CCc2c(nnn2CC2CC2)C1COCc1ccccc1 (stereo unspecified) | 2
CCOC(=O)c1c(N)sc(C(C)=O)c1C | 17
CC(C)NC(=O)NCC[C@H]1CC[C@H](NS(=O)(=O)c2ccc(Oc3ccccc3)cc2)[C@H](CO)O1 | -57
COc1cc2[nH]c3c(=O)n(CCC(=O)NCc4ccccn4)cnc3c2cc1OC | 27

(continued)
SMILES | Tgondii IFNg
CCOC(=O)CSC1=Nc2ccccc2C2=NC(CC(=O)NCc3ccc(F)cc3)C(=O)N12 (stereo unspecified) | 19
Cc1cc(C)nc(CN2CCC3(CCCO3)CCC2=O)n1 (stereo unspecified) | -16
C=CCC(=O)N(Cc1ccccc1OCC)C1CC1 | -5
C[C@H]1CC=CC[C@H](c2ccc(F)cc2)NC(=O)[C@H](Cc2ccccc2)N(C)C(=O)c2ccccc2O1 (mixture of isomers) | -34
CCCNC(=O)N1[C@H](CO)[C@@H](c2ccccc2-c2cccc(C)c2)[C@@H]1C#N | -17
COc1ccc(C(=O)/C=C2/c3ccccc3CC(C)(C)N2C)cc1 | -63
O=C(CSc1nnc(-c2ccco2)o1)N1c2ccccc2Sc2ccc(Cl)cc21 | 15
CC(C)(C)c1ccc(-c2ncon2)cc1Cn1nnc(-c2cccc(C(F)(F)F)c2)n1 | -57
Cc1nc2c(c(=O)[nH]1)CCN(C(=O)Cc1ccc3c(c1)OCCCO3)CC2 | 21
CCn1nc(C)c(NC(=O)CN2CCCC(Oc3ccc(F)cc3)C2)c1C (stereo unspecified) | -6
CCc1ccc(CN2CCCC(c3nn(C)c(=O)n3CC)C2)nc1 (stereo unspecified) | 29
Cc1cc(C)n(-c2ncc(S(=O)(=O)C(C)(C)C)c(N)n2)n1 | 60
CCOC(=O)c1nc(NCCc2ccccc2)c2ccccc2n1 | -62
O=C(c1ccoc1)N1CCCn2c(nc(Cn3ccnc3)cc2=O)C1 | -7
CC(=O)N1[C@H](CO)[C@@H](c2ccc(-c3ccccc3F)cc2)C12CN(CC1CCOCC1)C2 | 1
Cc1nc2c(c(NC3CC3)n1)CCN(Cc1cnn(C)c1)CC2 | -52
c1csc(C2NCCc3ccccc32)c1 (stereo unspecified) | -20
CCc1nc(C)c(C(=O)N2CCc3c(nc(C)nc3N(C)C)C2)o1 | -2
c1coc(CN2CCOCC3(CC(CN4CCCC4)CO3)C2)c1 (stereo unspecified) | -2
CCc1[nH]c2c(CNS(=O)(=O)c3cnn(CC)c3)cc(F)cc2c1C | -1
Cc1nc(C2CCNCC2)ncc1-c1nc(N2CCCCCC2)ncc1-c1ccc(F)cc1 | -47
COc1ccccc1Nc1ncnc(-n2cccc2)n1 | 168
Fc1ccc(N2CCCN(Cc3cnc(-c4ccco4)nc3)CC2)cc1 | 20
COc1ccc2c(c1)CC(C(=O)N1CCc3sccc3C1c1cccs1)CO2 (stereo unspecified) | 1
NCCCCCCCCCCNS(=O)(=O)c1cccc2c(Cl)cccc12 | -63&7

Following part.
SMILES | Tgondii IFNg
Cc1cc(NC(=O)c2ccccc2)no1 | 79
COc1nc(N)nc2nc[nH]c12 | 13
CCN(C/C=C/c1ccccc1)C(=O)c1ccc(Cl)cc1OC | -10
CCC(=O)Nc1ccc(OCC(=O)N2CC=CC2CC)cc1 (stereo unspecified) | -2
O=C(O)c1cc2ccccc2c(=O)s1 | 40
CCCc1cc(C(=O)N(C)CCOc2ccccc2)n[nH]1 | 91
Cc1cc(=O)n2[nH]c(C(=O)N3CCN(c4ccccc4)CC3)nc2n1 | 10
Cc1ccc(NC(=O)Cn2ncc3c(N4CCN(c5ccccc5)CC4)ncnc32)cc1C | 17
CC(C)c1cc(/C=C(\C#N)C(=O)NCCCc2ccccc2)cc(C(C)C)c1O | -60
COc1ccc(CC(=O)N2CCC3(CC2)NC(=O)c2cc(F)ccc2N3C)cc1 | 42
COC(=O)[C@H]1[C@H](CO)[C@H]2Cn3c(ccc(C4=CCCCC4)c3=O)[C@H]2N1C(=O)c1ccccc1F | -9
COc1ccc(-c2nc(N(CC(C)C)CC(C)C)c3ccccc3n2)cc1 | -13
CCOc1ccc(S(=O)(=O)n2ccnc2)cc1C | -49
CCCCCCCCCCCCCCCCCCOC[C@H](COP(=O)(O)OCC[N+](C)(C)C)OC | 11
NC(=O)CNCCC(c1ccccc1)c1ccccc1 | 12&30
CC(C)c1n[nH]c2c1CN(C(=O)CCc1c[nH]c3ccccc13)CC2 | -54
Cc1ccc(NC(=O)C(=O)NCCc2sc(-c3ccccc3)nc2C)c(C)c1 | 91
Cc1ccc(CNC(=O)C2CCN(S(=O)(=O)c3ccc4[nH]c(=O)ccc4c3)CC2)o1 | 106
COc1ccc(CCN(C)C2CCCN(c3ncnc4nc[nH]c34)C2)cc1OC (stereo unspecified) | 1
COc1ccc(N2CCN(C(=O)c3cc4cccnc4n(Cc4ccc(Cl)cc4)c3=O)CC2)cc1 | 63
